Vaccinia Venus: qHTS for Stage-Specific Inhibitors of Vaccinia Orthopoxvirus: Venus Reporter Primary qHTS; Vaccinia virus Venus reporter expression, fluorescence; Potency, µM (highest dose often 36.5 µM), for the others: at the highest dose activity change, negative = inhibition, usual class: inhibitors; 330,000 compounds, 0.46% hits; AID 720580, 2013; active means well fitted inhibition curve with a large enough effect; inconclusive means small, poorly fitted or top-dose-only effect; inactive means no such curve, though single readings can be large or run the other way; tested in A549 cells; also: nearly all actives have a fitted effect of over 30% in size; inactives centre near -10
VACV mCherry inh: qHTS for Stage-Specific Inhibitors of Vaccinia Orthopoxvirus: mCherry Reporter Primary qHTS. Vaccinia virus mCherry reporter infection, fluorescence; about a quarter of the inactives have no number. Potency, µM (highest dose often 36.5 µM), for the others: at the highest dose activity change, negative = inhibition, hits mostly inhibitors. 310,000 compounds, 0.63% hits; active = well fitted inhibition curve with a large enough effect; inconclusive = small, poorly fitted or top-dose-only effect; inactive = no such curve, though single readings can be large or run the other way; tested in A549 cells; also: nearly all actives have a fitted effect of over 35% in size; inactives centre near -10
Numbers without * were called inactive; & = joins results of further samples; [ ] = remark or other dose. % is scaled to controls: 0 for no effect and ±100 for the full control effect; potency is read from the fitted curve at half-maximal effect.

OC(CBr)C[n+]1cc(Br)cc2ccccc21 (stereo unspecified) was read as Vaccinia Venus -15% and VACV mCherry inh -25%.
`CCOc1cccc(C(=O)Nc2nc(-c3ccc(S(=O)(=O)N4CCOCC4)cc3)cs2)c1` gave Vaccinia Venus -24%.
COc1cc(S(=O)(=O)O)c(C)cc1N=Nc1c(O)ccc2cc(S(=O)(=O)O)ccc12 was read as Vaccinia Venus 43%[activator] and VACV mCherry inh 26%.
`Cc1ccc(S(=O)(=O)N(C)C)cc1NC(=O)COC(=O)CCC(=O)c1cccs1` gave Vaccinia Venus 4% and VACV mCherry inh 5%.
`Cc1noc(NS(=O)(=O)c2ccc(NC(=O)c3cnc4scc(C)n4c3=O)cc2)c1C` gave Vaccinia Venus 2% and VACV mCherry inh -13%.
Screening CC(=O)c1cc(NC(=O)c2cccc(C(F)(F)F)c2)c(=O)oc1C returned Vaccinia Venus -10% and VACV mCherry inh -2%.
Screening O=C(NC1CC1)C1=C[C@H](C2CC2)C[C@H](OCCCCO)O1 returned Vaccinia Venus -2% and VACV mCherry inh inactive.
For O=C1c2ccccc2C(=O)N1C/C=C/c1ccccc1 the results were Vaccinia Venus inconclusive and VACV mCherry inh inconclusive.
Cc1cc(C)c(C)c(N=Nc2nc3ccccc3n2C)c1C was read as Vaccinia Venus inconclusive and VACV mCherry inh inconclusive.
`COc1ccc(CNC(=O)C(C)NC(=O)c2cc3ccccc3o2)cc1` (stereo unspecified) gave Vaccinia Venus 13%.
`O=[N+]([O-])c1cccc(/C=N/Nc2nnc(-c3ccccc3)c(-c3ccccc3)n2)c1` gave Vaccinia Venus -5% and VACV mCherry inh inactive.
O=C(NCC(=O)N(Cc1ccco1)C(C(=O)NC1CCCC1)c1cccnc1)c1cccs1 (stereo unspecified) was read as Vaccinia Venus -7% and VACV mCherry inh -12%.
Cc1ccc(C(=O)NCC(c2ccc3c(c2)OCO3)N2CCOCC2)cc1C (stereo unspecified) was read as Vaccinia Venus -12% and VACV mCherry inh 3%.
O=S(=O)(Cc1ccccc1)C(c1ccccc1)S(=O)(=O)Cc1ccccc1 was read as Vaccinia Venus -7% and VACV mCherry inh inactive.
For Cc1nc(-c2ccccn2)nc(N2CCOCC2)c1Cl the results were Vaccinia Venus 4% and VACV mCherry inh -13%.
COC(=O)c1c(NC(=O)CCCC(=O)O)sc2c1CCCCC2 was read as Vaccinia Venus -16% and VACV mCherry inh inactive.
For O=C1CSC(c2ccncc2)N1Cc1ccccc1 (stereo unspecified) the results were Vaccinia Venus -2% and VACV mCherry inh -5%.
Screening Cc1cc(C)nc(SCCC(=O)Nc2ccccc2C)n1 returned Vaccinia Venus -15%.
For Cc1cccc(NC(=S)NCc2ccccn2)c1 the results were Vaccinia Venus -9%.
Screening CCCSc1nc(C)c(CC(=O)OCC)c(=O)[nH]1 returned Vaccinia Venus -6% and VACV mCherry inh -15%.
CN(Cc1ccccc1NCC(=O)Nc1ccccc1C#N)C1CCCCC1 was read as Vaccinia Venus -14% and VACV mCherry inh inconclusive.
For C#CCN(C)C(C)Cc1ccccc1 (stereo unspecified) the results were Vaccinia Venus -7% and VACV mCherry inh -20%.
For OCC[C@H]1C[C@@H](O)[C@H](O)[C@]2(OCCc3ccccc32)O1 the results were Vaccinia Venus -4% and VACV mCherry inh inactive.
`Cc1ccc(S(=O)(=O)NCC(=O)OCC(=O)NCc2ccc3c(c2)OCO3)cc1` gave Vaccinia Venus 2% and VACV mCherry inh inactive.
CC(NC(=S)Nc1ccc(F)cc1)C(c1cccs1)N1CCOCC1 (stereo unspecified) was read as Vaccinia Venus -20% and VACV mCherry inh inactive.
Screening CCOC(=O)N1CCN(C(=O)c2ccc(S(=O)(=O)Nc3ccccc3)cc2)CC1 returned Vaccinia Venus -21% and VACV mCherry inh inactive.
Screening Cn1c(N)c(C(=O)COC(=O)CCCOc2ccc(Cl)cc2Cl)c(=O)n(C)c1=O returned Vaccinia Venus -10% and VACV mCherry inh inactive.
CC(=O)NC1Sc2ccccc2N=C1c1ccccc1 (stereo unspecified) was read as Vaccinia Venus -3%.
For Cc1cccnc1-c1cccc2c1OC(CNC(=O)Cn1cncn1)C2 (stereo unspecified) the results were Vaccinia Venus -6% and VACV mCherry inh -12%.
Screening Fc1ccc(OCc2nn3c(Cn4nnc5ccccc54)nnc3s2)cc1 returned Vaccinia Venus -14% and VACV mCherry inh -27%.
For O=C(NCc1ccc(Cl)cc1)C(=O)NCC(c1cccnc1)N1CCN(c2ccc(F)cc2)CC1 (stereo unspecified) the results were Vaccinia Venus -7% and VACV mCherry inh -29%.
Screening Cc1c(C(=O)N2CCN(c3ncccn3)CC2)oc2c(Cl)cccc12 returned Vaccinia Venus -21% and VACV mCherry inh -2%.
Cc1ccc(-n2nc(C)c3c(C(=O)Nc4ccccc4C(F)(F)F)cc(C)nc32)cc1 was read as Vaccinia Venus -10% and VACV mCherry inh -11%.
Cc1cc(-c2ccnc(-n3ncc(C(=O)NC(C)(C)CO)c3C3CC3)n2)c(C)s1 was read as Vaccinia Venus -26% and VACV mCherry inh -27%.
C[C@H](CO)N1C[C@H](C)[C@@H](CN(C)S(C)(=O)=O)Oc2ccc(NS(=O)(=O)c3ccccc3)cc2C1=O was read as Vaccinia Venus -8% and VACV mCherry inh inactive.
`CCOCCCNC(=O)c1cc(Sc2ccc(F)cc2)nc2ccccc12` gave Vaccinia Venus -9% and VACV mCherry inh -1%.
`Fc1ccc(-c2cc(-c3nc(-c4cccc(Cl)c4)no3)[nH]n2)cc1` gave Vaccinia Venus -10% and VACV mCherry inh -2%.
Screening CN(CCc1ccccn1)C(=O)CCc1nnc(CCCc2ccccc2)o1 returned Vaccinia Venus 8% and VACV mCherry inh -27%.
For CCN(CC)S(=O)(=O)c1cccc(NC(=O)CN2C(=O)NC3(CCOc4ccccc43)C2=O)c1 (stereo unspecified) the results were Vaccinia Venus -26% and VACV mCherry inh inconclusive.
COc1c2ccoc2cc2oc(C)cc(=O)c12 was read as Vaccinia Venus -1%&0% and VACV mCherry inh 4%.
For O=C(NCc1ccccc1)c1cccc2c1C(=O)c1ccc(/C=C/c3ccccc3)cc1S2(=O)=O the results were Vaccinia Venus -30% and VACV mCherry inh inactive.
`O=C(N=C1c2ccccc2CN1c1ccc(F)c(F)c1)c1cccnc1` gave Vaccinia Venus -3% and VACV mCherry inh inactive.
Cc1ccc(S(=O)(=O)N2CCC(C(=O)N3CCCCCCC3)CC2)cc1 was read as Vaccinia Venus -10% and VACV mCherry inh inactive.
For CCc1ccccc1NC(=O)c1ccc(NCCc2ccccc2)c([N+](=O)[O-])c1 the results were Vaccinia Venus -1% and VACV mCherry inh -13%.
Screening COc1ccc(NC(=O)CN(C)C(=O)CNC(=O)Cc2cccc3ccccc23)cc1 returned Vaccinia Venus -14% and VACV mCherry inh -20%.
COc1ccc2c(c1)[N+](C)(C)C(C)(C)C=C2C was read as Vaccinia Venus -2% and VACV mCherry inh inactive.
For C=CCn1c(SCC(=O)N2CCOCC2)nc(O)cc1=O the results were Vaccinia Venus -10% and VACV mCherry inh -8%.
`CC(C)N1C(=O)CC2(CC[N+](C)(CCOC(=O)C(O)(c3ccccc3)c3ccccc3)CC2)C1=O` (stereo unspecified) gave Vaccinia Venus -19%.
For COC(=O)C1=C(C(=O)OC)[C@]2([C@H]3CC=CCN[C@@H](Cc4ccccc4)C(=O)N3Cc3ccccc3)C=C[C@H]1O2 the results were Vaccinia Venus inconclusive and VACV mCherry inh -21%.
Screening CC(=O)Nc1ccc(C(=O)CSc2nnnn2C)cc1 returned Vaccinia Venus -12% and VACV mCherry inh 12%.
`CCCn1c(SCc2ccccc2)nc2c1c(=O)[nH]c(=O)n2C` gave Vaccinia Venus inconclusive.
Screening Cc1oc2ncn(CC(C)C)c(=O)c2c1C(=O)NCCCN(Cc1ccccc1)C(C)C returned Vaccinia Venus -8% and VACV mCherry inh -16%.
Screening Cc1cccc(C)c1NC(=O)CCCSc1nnc(-c2ccc(F)cc2)n1-c1ccccc1 returned Vaccinia Venus inconclusive and VACV mCherry inh -24%.
Screening COC(=O)c1c(C(=O)OC)c2cccc3cc(-c4ccccc4)c4ccc1c4n32 returned Vaccinia Venus -10%.
For Cc1c(C#N)c(=O)oc2ccc3ccccc3c12 the results were Vaccinia Venus -9% and VACV mCherry inh -9%.
For CCOC(=O)C1=C(O)CSC1=Nc1ccccc1 the results were Vaccinia Venus -13%.
Screening Cc1cc(C)cc(NC(=O)COC(=O)[C@@H](NC(=O)c2ccco2)C(C)C)c1 returned Vaccinia Venus -6% and VACV mCherry inh -13%.
`O=C(CC(=O)N/N=C/c1c(Cl)cccc1Cl)NCc1cccnc1` gave Vaccinia Venus -13% and VACV mCherry inh -11%.
`CCC[C@H]1CN(c2ccc(Br)cc2)C(=O)[C@@H]1CC(=O)Nc1ccc(OC)cc1` gave Vaccinia Venus -30% and VACV mCherry inh inconclusive.
Screening COc1ccc(C(=O)N2CCN(c3ccc(NC(=O)c4ccco4)cc3)CC2)cc1 returned Vaccinia Venus -20% and VACV mCherry inh -8%.

An excerpt from above in order of molar mass, low to high:
For CCOC(=O)C1=C(O)CSC1=Nc1ccccc1 the results were Vaccinia Venus -13%.
Screening CC(=O)Nc1ccc(C(=O)CSc2nnnn2C)cc1 returned Vaccinia Venus -12% and VACV mCherry inh 12%.
For C=CCn1c(SCC(=O)N2CCOCC2)nc(O)cc1=O the results were Vaccinia Venus -10% and VACV mCherry inh -8%.
`O=C(CC(=O)N/N=C/c1c(Cl)cccc1Cl)NCc1cccnc1` gave Vaccinia Venus -13% and VACV mCherry inh -11%.
Screening Cc1cc(C)cc(NC(=O)COC(=O)[C@@H](NC(=O)c2ccco2)C(C)C)c1 returned Vaccinia Venus -6% and VACV mCherry inh -13%.
Screening COC(=O)c1c(C(=O)OC)c2cccc3cc(-c4ccccc4)c4ccc1c4n32 returned Vaccinia Venus -10%.
Screening COc1ccc(C(=O)N2CCN(c3ccc(NC(=O)c4ccco4)cc3)CC2)cc1 returned Vaccinia Venus -20% and VACV mCherry inh -8%.
Screening Cc1oc2ncn(CC(C)C)c(=O)c2c1C(=O)NCCCN(Cc1ccccc1)C(C)C returned Vaccinia Venus -8% and VACV mCherry inh -16%.
`CCC[C@H]1CN(c2ccc(Br)cc2)C(=O)[C@@H]1CC(=O)Nc1ccc(OC)cc1` gave Vaccinia Venus -30% and VACV mCherry inh inconclusive.
`CC(C)N1C(=O)CC2(CC[N+](C)(CCOC(=O)C(O)(c3ccccc3)c3ccccc3)CC2)C1=O` (stereo unspecified) gave Vaccinia Venus -19%.

The list continues.
Cc1ccccc1C(=O)N1CCN(c2ccc(NC(=O)c3ccco3)cc2)CC1 was read as Vaccinia Venus 17% and VACV mCherry inh -13%.
`CC(=O)c1ccc(N(CC(=O)NC2CCCC2)C(=O)c2ccc(C)s2)cc1` gave Vaccinia Venus -12% and VACV mCherry inh -22%.
Screening COc1cc(OC)c(S(=O)(=O)N2CCN(C(=O)c3ccccc3F)CC2)cc1NC(C)=O returned Vaccinia Venus -7% and VACV mCherry inh inactive.
For CC1CN=C(NC2CCCCC2C)S1 (stereo unspecified) the results were Vaccinia Venus -19% and VACV mCherry inh inactive.
`COc1ccc([C@H]2CC(=O)C=C(c3cccc(F)c3OC)C2)cc1` gave Vaccinia Venus -26% and VACV mCherry inh -7%.
Screening COC(=O)[C@]12CCCCC=C1N(CCc1ccc(OC)c(OC)c1)C(=O)[C@H](CC(=O)N1CCN(C(=O)c3ccco3)CC1)C2 returned Vaccinia Venus -21% and VACV mCherry inh -1%.
Screening COC(=O)c1ccc(C2Nc3cccc4cccc(c34)N2)cc1 returned Vaccinia Venus -12% and VACV mCherry inh -9%.
For C=CC(=O)Nc1ccc(Br)cc1 the results were Vaccinia Venus inconclusive.
COc1c2n(C)ccc3c-2n(c(=O)c1=O)c1ccccc31 was read as Vaccinia Venus 11% and VACV mCherry inh inactive.
`Cc1nn(C)c(C)c1S(=O)(=O)N1CCC(C(=O)NCC2COc3ccccc3O2)CC1` (stereo unspecified) gave Vaccinia Venus 0% and VACV mCherry inh -7%.
`COCCn1c(SCC(=O)NCc2ccc3c(c2)OCO3)nnc1-c1c[nH]c2ccccc12` gave Vaccinia Venus -10% and VACV mCherry inh inactive.
`COC(=O)c1ccc(C23CC4(C2)[C@H](CN(Cc2ccc(-c5ccccc5)cc2)[C@@H]4c2ccccc2)C3c2ccc(C(F)(F)F)cc2)cc1` (stereo partly specified) gave Vaccinia Venus 1% and VACV mCherry inh inactive.
`CCc1ccc(CNC(=O)c2cnc3sc(N4CCCC4)nn3c2=O)cc1` gave Vaccinia Venus -1% and VACV mCherry inh -14%.
For Cc1ccc2ncnc(NCCCCCC(=O)O)c2c1 the results were Vaccinia Venus 4% and VACV mCherry inh 5%.
`CCc1nc2ccc(C(=O)N(C)CCCN(C)C)cn2c1N(C)CCCc1ccccc1` gave Vaccinia Venus 1% and VACV mCherry inh 1%.
For Cc1cccc(NC(=S)N(C)C)c1C the results were Vaccinia Venus 4% and VACV mCherry inh inactive.
`Cc1sc2ccccc2[n+]1CC(=O)c1ccc(F)cc1` gave Vaccinia Venus -15% and VACV mCherry inh inactive.
For Cc1c(OC(C)C(=O)NC2CC(C)(C)NC(C)(C)C2)ccc2c3c(c(=O)oc12)CCC3 (stereo unspecified) the results were Vaccinia Venus -28% and VACV mCherry inh inactive.
Screening COCCn1nnnc1C(c1ccc(OC)cc1)N1CCN(c2ccccc2F)CC1 (stereo unspecified) returned Vaccinia Venus -18%.
Screening CN(C)C(=O)CC12CC3CC(C1)CC(CC(=O)N(C)C)(C3)C2 returned Vaccinia Venus 11% and VACV mCherry inh inactive.
